Screens: PubChem, several laboratories
Arbovirus inh = antivirals against arbovirus infection, primary screen, cell-based, full library, 10K replicate subset; arbovirus infection cell-based antiviral screen; inhibition, % at 10 µM; 200,000 compounds, 0.37% hits; AID 1251, 2008;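 active = inhibition from about 30%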;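 note: bluetongue infection of BSR cells; cell survival read as ATP light after 72 h; 0% = infected wells without compound and 100% = uninfected wells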
Mtb H37Rv = M. tuberculosis H37Rv growth inhibitors, H37Rv strain (AID 1626); M. tuberculosis H37Rv growth inhibition; higher % means a stronger effect; 220,000 compounds, 0.95% hits; inhibition, % at 10 µM, or IC50 in µM where a hit was titrated;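 active = confirmed in a dose series; inconclusive = inhibition above 80% but not taken into the dose series; inactive = below 80% or under 30% at every dose of the series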;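 note: bacteria incubated seven days before Alamar blue readout; 0% = bacteria only wells and 100% = bacteria with antibiotic wells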
Mtb betalactam = beta-lactam sensitization of Mtb H37Rv, H37Rv | M. tuberculosis H37Rv growth with meropenem, percent inhibition; hits of this screen are not shown here | inhibition, % at 25 µM | 330,000 compounds, 0.27% hits | AID 434955, 2010;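 active = about 74% or more and at least 40 points above the plate without the antibiotic, then above 30% in a dose series; inconclusive = first-round hits that could not be retested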;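 note: growth measured after seven days incubation then overnight dye step; 0% = bacteria only wells and 100% = bacteria with antibiotic; twin plates without the antibiotic show which effects depend on it; some results filed as inactive read as strong as hits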
RecA splice inh = Mtb RecA intein splicing inhibitors, primary screen, biochemical, fluorescence, HTS. inhibition, %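 (about 9 µM by stock and volumes)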. Protein RecA (Mycobacterium tuberculosis (strain ATCC 25618 / H37Rv)), P9WHJ3. cell-free RecA intein splicing. 290,000 compounds, 0.75% hits; in the data active = inhibition above about 30%; inconclusive = no clear call, values can overlap the other calls;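 note: 0% = vehicle wells and 100% = reference inhibitor control wells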
Target sequence (P9WHJ3 whole entry, looked up, canonical isoform): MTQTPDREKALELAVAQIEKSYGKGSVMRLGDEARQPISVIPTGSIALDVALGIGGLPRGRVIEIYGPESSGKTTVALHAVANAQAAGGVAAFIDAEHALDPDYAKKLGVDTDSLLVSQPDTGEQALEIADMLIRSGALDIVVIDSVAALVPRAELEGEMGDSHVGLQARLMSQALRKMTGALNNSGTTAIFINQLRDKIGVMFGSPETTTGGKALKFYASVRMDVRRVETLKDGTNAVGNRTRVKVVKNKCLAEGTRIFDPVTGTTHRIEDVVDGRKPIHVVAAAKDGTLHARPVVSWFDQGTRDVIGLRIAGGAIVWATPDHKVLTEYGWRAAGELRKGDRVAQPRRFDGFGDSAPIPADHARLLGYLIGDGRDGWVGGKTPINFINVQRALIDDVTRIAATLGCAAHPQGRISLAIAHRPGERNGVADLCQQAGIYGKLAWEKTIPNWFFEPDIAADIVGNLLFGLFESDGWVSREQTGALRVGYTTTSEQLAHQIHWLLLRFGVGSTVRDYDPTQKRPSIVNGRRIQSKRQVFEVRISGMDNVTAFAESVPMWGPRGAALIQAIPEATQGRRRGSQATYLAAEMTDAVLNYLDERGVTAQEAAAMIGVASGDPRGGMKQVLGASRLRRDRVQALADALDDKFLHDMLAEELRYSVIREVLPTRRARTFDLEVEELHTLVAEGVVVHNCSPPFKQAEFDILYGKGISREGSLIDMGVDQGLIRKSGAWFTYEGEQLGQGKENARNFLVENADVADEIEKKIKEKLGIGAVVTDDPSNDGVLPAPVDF
YopH inh = YopH tyrosine phosphatase inhibitors, primary screen, biochemical, fluorescence Ex485/Em525. inhibition, %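 (about 10 µM by stock and volumes)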. 140,000 compounds, 0.16% hits. YopH tyrosine phosphatase [Yersinia enterocolitica];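 active = inhibition of 50% or more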;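 note: controls were vehicle for no effect and minimum signal wells for full effect; inactives centre near -20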
Arbovirus inh repeat = also measured in Arbovirus inh; calls as there; inhibition, %; measured here: 10K subset replicate screen; many hits read low in the repeat;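 first of two repeat runs on a subset; 0% = infected and 100% = uninfected wells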
* = called active by the depositor; ? = inconclusive; . = no result given. Not all compounds are listed (hit frequency here may not be typical).

SMILES	Arbovirus inh	Mtb H37Rv	Mtb betalactam	RecA splice inh	YopH inh	others
CC(C)Nc1nc(NC(C)C)nc(N(C)C#N)n1	-1	2%	3	3.1	-15
Cc1cc(C)c(C#N)c(SCC(=O)C2CC2)n1	.	-3%	1	-59	.
O=C(CN1CCN(c2ccccc2O)CC1)NNC(=O)c1ccc(Cl)cc1	0	-5%	6	-1.8	-30
Clc1ccccc1COc1ccccc1-c1nnco1	2	9%	53	5.1	-25
CSc1ccc(NC(=O)N2CCN(c3nc4ccccc4s3)CC2)cc1	-1	9.2µM*	97	-1.7	-18
O=C(NCC(O)CN1CCOCC1)c1ccc([N+](=O)[O-])cc1 (configuration not stated)	3	-6%	-1	1.5	.
CCOC(=O)CN1CC23C=CC(O2)C(C(=O)Nc2ccc4c(c2)OCO4)C3C1=O (configuration not stated)	-3	-1%	-2	4.7	-36	Arbovirus inh repeat=-1
COc1cccc(N2CC(O)Cn3c2nc2c3c(=O)n(CCCc3ccccc3)c(=O)n2C)c1 (configuration not stated)	-17	-4%	2	.	-41
CCOC(=O)Cc1ccc(NCc2ccc(Cl)cc2)cc1	12	?	95	3.7	.
CCCCOc1ccc(C(=O)N/C(=C\c2ccc([N+](=O)[O-])cc2)C(=O)OCc2ccco2)cc1	-2	3%	3	-1.6	-20
Cc1ccc2oc(C(=O)N3CCCCCC3)c(C)c2c1	.	.	13	3.2	.
N#CCCNC(=O)CCN1CCCCC1	6	-1%	-12	4.8	-10
COc1ccccc1NC(=O)CN(c1ccc(C)cc1)S(=O)(=O)c1c(C)n[nH]c1C	5	15%	11	6.5	-38
Cc1ccc(NC(=O)c2cc(S(=O)(=O)N3CCc4ccccc43)cn2C)cc1C	.	.	-7	-0.2	.
O=C(N1CCOCC1)C(F)(F)C(=O)N1CCOCC1	0	-7%	-2	-1.7	-49
Cc1cc(N2CCC(C(N)=O)CC2)nc(-c2ccccc2)n1	0	-1%	-15	1.0	-10
CCOc1ccc(CCNC(=O)Cc2ccc(S(=O)(=O)N3CCOCC3)s2)cc1OCC	.	.	-6	1.4	.
CC1CN(c2cc([N+](=O)[O-])ccc2Cl)CC(C)N1 (configuration not stated)	-4	3%	-7	5.2	.
Cc1onc(-c2ccccc2Cl)c1C(=O)N(C)C1CCCCC1	11	1%	-7	3.7	-43	Arbovirus inh repeat=14
Cc1ccccc1-c1nnc(SCCC(=O)N2CCOCC2)o1	11	-3%	9	-5.8	.

3 structures out of the list, sorted by molar mass, descending:
SMILES	Arbovirus inh	Mtb H37Rv	Mtb betalactam	RecA splice inh	YopH inh	others
CCOc1ccc(CCNC(=O)Cc2ccc(S(=O)(=O)N3CCOCC3)s2)cc1OCC	.	.	-6	1.4	.
COc1cccc(N2CC(O)Cn3c2nc2c3c(=O)n(CCCc3ccccc3)c(=O)n2C)c1 (configuration not stated)	-17	-4%	2	.	-41
CC1CN(c2cc([N+](=O)[O-])ccc2Cl)CC(C)N1 (configuration not stated)	-4	3%	-7	5.2	.

Returning to the listing, repeating the six entries before the break.
SMILES	Arbovirus inh	Mtb H37Rv	Mtb betalactam	RecA splice inh	YopH inh	others
O=C(N1CCOCC1)C(F)(F)C(=O)N1CCOCC1	0	-7%	-2	-1.7	-49
Cc1cc(N2CCC(C(N)=O)CC2)nc(-c2ccccc2)n1	0	-1%	-15	1.0	-10
CCOc1ccc(CCNC(=O)Cc2ccc(S(=O)(=O)N3CCOCC3)s2)cc1OCC	.	.	-6	1.4	.
CC1CN(c2cc([N+](=O)[O-])ccc2Cl)CC(C)N1 (configuration not stated)	-4	3%	-7	5.2	.
Cc1onc(-c2ccccc2Cl)c1C(=O)N(C)C1CCCCC1	11	1%	-7	3.7	-43	Arbovirus inh repeat=14
Cc1ccccc1-c1nnc(SCCC(=O)N2CCOCC2)o1	11	-3%	9	-5.8	.
O=C(CSc1nnc(-c2cccnc2)n1-c1ccccc1)Nc1ccccc1	7	-1%	-3	2.7	-38
COc1ccc(NC(=O)CN(C)C(=O)c2ccc(NS(=O)(=O)c3cccc([N+](=O)[O-])c3)cc2)cc1	.	.	0	1.7	.
COc1ccc(NC(=O)CN(C)C(=O)c2cccc(S(=O)(=O)N3CCN(c4ccccc4)CC3)c2)cc1	.	.	-7	-1.4	.
CCc1cccc(NS(=O)(=O)c2ccc3c(c2)CCC(=O)N3)c1	-1	1%	0	3.9	.
CCOc1ccc(NC(=O)CSc2nc(N)c(-c3ccccc3)c(=O)[nH]2)cc1	23	86%	-7	-6.2	.
O=C(NC1CCCCC1)C(c1ccc(F)cc1)N(Cc1ccccc1)C(=O)CN1C(=O)c2ccccc2S1(=O)=O (configuration not stated)	-12	1%	18	-0.5	-12
COc1ccc(/C=C/c2c([N+](=O)[O-])c(=O)n(C)c(=O)n2C)cc1	3	0%	-4	2.9	.
O=C(NCc1ccc(F)cc1Cl)C1CCN(S(=O)(=O)N2CCCCC2)CC1	.	.	2	2.5	.
Cc1cc[n+](C(C)C(=O)c2ccc(-c3ccccc3)cc2)cc1 (configuration not stated)	1	6%	0	-2.3	.
O=C(Cc1ccccc1)NNS(=O)(=O)c1ccc(F)cc1	-2	-8%	-2	1.4	.
CCSc1nnc(NC(=O)Cc2ccccc2OC)s1	3	-10%	-5	0.1	-11
CCN1CCN(CCCNC(=O)c2ccc(/C=C3/Oc4ccccc4N(Cc4cccc(C)c4)C3=O)cc2)CC1	.	.	87	-6.5	.
CC/C(O)=C1\C(=O)CCCC1=NCCc1nc2ccccc2[nH]1	2	.	-2	2.2	.
Cc1cc(C(=O)N2CCCC(Nc3ccccc3)C2)c2ccc(F)cc2n1 (configuration not stated)	.	.	-2	0.5	.
Cc1c(NC(=S)NC(=O)c2ccccc2)c(=O)n(-c2ccccc2)n1C	.	.	0	-1.7	.
COc1ccc(OC)c(CCNC(=O)c2ccccc2NC(=O)C2=C(C)OCCS2)c1	.	.	-2	-1.7	.
CCOC(=O)C1CCN(C(=O)c2ccc3c(c2)NC(=O)/C(=C\c2cccc(C)c2)S3)CC1	.	.	99	-2.3	.
COc1ccc(N2CCN(c3ccc(NC(=O)c4ccc5c(c4)OCO5)cc3C#N)CC2)cc1	-4	-8%	12	1.4	-25
CCn1c(CN2C(=O)CSc3ccccc32)n[nH]c1=S	.	.	-7	0.6	.
CC(C)(C)c1ccc(C(=O)c2c[nH]c(C(=O)O)c2)cc1	3	9%	27	1.7	.
CC(C)[C@H](NC(=O)c1ccccc1)C(=O)OCC(=O)N1CC2(C)CC1CC(C)(C)C2 (some centres not stated)	-3	-10%	-3	-1.1	-35
COCC(C)n1c(C)cc(C(=O)COC(=O)c2ccc3c(c2)NC(=O)CS3)c1C (configuration not stated)	4	1%	4	2.7	-22
Cc1ccc(NC(=O)c2cc(=O)c3ccccc3o2)cc1S(=O)(=O)N1CCOCC1	.	-7%	-3	-1.0	.
O=C(c1cccc(C(F)(F)F)c1)N1CCCC1	6	-4%	5	-1.2	-10
COc1ccc2[nH]c(=O)cc(C(=O)O)c2c1	-4	-5%	-2	0.2	.
COc1cc2ccccc2cc1C(=O)Nc1ccc(Br)cn1	.	.	-1	3.1	.
COc1cc(OC)nc(NC2OC(=O)c3ccccc32)n1 (configuration not stated)	15	-9%	4	-4.2	-36
O=C1C(c2ccc(F)cc2)N(Cc2ccc3c(c2)OCO3)C(=O)CN1C1CCCC1 (configuration not stated)	-2	1%	9	0.4	-23
O=C(NC1=NCCS1)c1ccc(OCC2CCCO2)cc1 (configuration not stated)	-1	-15%	2	-2.0	15
Cc1nc(N2CCN(S(=O)(=O)c3cccc4nonc34)CC2)c2c3c(sc2n1)CCCC3	8	?	-10	0.9	-18
O=C(NCc1ccc(N2CCCC2=O)cc1)c1cccc(Cl)c1	-3	2%	-11	4.5	.
COc1ccc(OCCCC(=O)N2CCCc3ccccc32)cc1	3	6%	9	1.7	-35
CCC(C)NC(=O)Cn1ccc2cc(S(=O)(=O)N3CCCCCC3)ccc21 (configuration not stated)	.	.	2	0.6	.
COc1ccc(N2C(=O)CSC2c2cccs2)cc1 (configuration not stated)	6	-2%	?	4.8	-27
COc1cccc(C2N(c3ccc(Cl)cc3)C(=O)C3CCCN32)c1 (configuration not stated)	5	-5%	?	-0.1	-9	Arbovirus inh repeat=-2
COC(=O)C1=C(N)OC2=C(C(=O)CCC2)C1c1cccs1 (configuration not stated)	5	-16%	-3	1.4	5	Arbovirus inh repeat=6
O=C(Cn1ccsc1=NC(=O)C(F)(F)F)c1ccccc1	5	-7%	-8	-0.4	-35
Cc1ccc(OCc2nc(C#N)c(NCc3ccco3)o2)cc1	-4	12%	12	9.5	-20
CC(C)N(CCNC(=O)c1nn(Cc2ccccc2)c(=O)c2ccccc12)C(C)C	.	.	-3	-10	.
CC(C)=CCN1CCN(CCCn2cccn2)CC1CCO (configuration not stated)	5	-1%	4	-0.7	.
O=C(CCN1CCCCC1)NNC(=O)C12CC3CC(CC(C3)C1)C2	5	0%	-2	0.5	.
CCC(C)NCCOCCOc1ccc(Cl)c(C)c1C (configuration not stated)	-38	4%	-12	-0.2	-29
COc1ccc(CCC(=O)N/N=C\c2cccs2)cc1	-1	37%	31	.	.
COc1cc2[nH]c(C(=O)Nc3ccc4c(c3)OCCO4)cc2c(OC)c1OC	.	.	-4	4.8	.
COc1ccc(S(=O)(=O)NC(C)C)cc1-n1cnnn1	1	3%	-5	0.5	.
Cc1cc(C)n2nc(C(=O)N3CCN(c4ccc([N+](=O)[O-])cc4)CC3)nc2n1	-5	5%	3	0.2	.
Cc1cc(=O)oc2cc(OCC(=O)NCCCN3CCCC3=O)ccc12	.	.	2	-1.4	.
Cc1onc(-c2ccccc2Cl)c1C(=O)NNC(=O)c1ccc(F)cc1	.	.	0	0.5	.
CCOC(=O)c1c(NC(=O)C2COc3ccccc3O2)sc2c1CCN(Cc1ccccc1)C2 (configuration not stated)	11	9%	8	1.4	3
Cc1oc2c(C)c(O)ccc2c(=O)c1N1C(=O)c2ccccc2C1=O	-2	-4%	-5	1.0	-25
Cn1c2c(c(=O)n(C)c1=O)C(CC(=O)Nc1ccccc1)C(=O)N2 (configuration not stated)	15	-2%	-5	-1.9	-15
c1ccc(-c2csc3ncnc(N4CCN(Cc5ccc6c(c5)OCO6)CC4)c23)cc1	.	.	44	-0.5	.
CCOC(=O)c1sc2nc(N3CCCC3)c3c(c2c1N)CC(C)(C)OC3	-3	-11%	?	-1.2	-17
O=C(Nc1ccc2c(c1)nc1n2CCN(C2CCCCC2)C1)NC1CCCCC1	-12	61%	-16	7.4	10
CCOC(=O)N1CCN(C(=O)c2ccc(S(=O)(=O)c3ccc(C)cc3)c(NC(C)=O)c2)CC1	4	-10%	-9	2.7	-10
Cc1ccc(/C=C2\C(=O)ON=C2c2ccccc2)o1	-4	8%	86	0.9	.
COc1cc(S(=O)(=O)NCCN2CCOCC2)c(OC)cc1Cl	7	-17%	-3	1.3	-25
Cc1cc(Nc2ccccc2)nc(-c2ccccc2O)n1	-32	25%	98	8.1	-23
O=C(Cc1ccc(Br)cc1)Nc1ccccc1Cl	-7	6%	-8	-2.2	-8
O=C1C(=O)N(CC(=O)N2CCCC2)c2ccccc21	-8	-5%	0	0.8	.

Remaining list, next part.
SMILES	Arbovirus inh	Mtb H37Rv	Mtb betalactam	RecA splice inh	YopH inh	others
CCc1nnc(NC(=O)c2ccc(S(=O)(=O)N3CCN(Cc4ccccc4)CC3)cc2)s1	-2	-10%	13	-2.0	-29
COc1ccc(/C(O)=C2/C(=O)C(=O)N(CC3CCCO3)C2c2cccc(OC)c2)cc1 (configuration not stated)	-2	9%	10	1.2	-38
O=C(Oc1cccc(Nc2ncnc3ccccc23)c1)c1ccccc1Cl	-3	-9%	81	4.5	-21
COc1cc(CCC(=O)O)on1	.	-8%	7	-8.7	.
COCCN(Cc1cn[nH]c1-c1ccc2cc(OC)ccc2c1)C(C)C	.	.	8	-3.6	.
O=C(Nc1nc2c(cc3c4c(cccc42)CC3)s1)c1ccccc1Cl	27	13%	4	-3.0	3
CCOC(=O)C1CCN(C2=C(NS(=O)(=O)c3ccc(Br)cc3)C(=O)c3ccccc3C2=O)CC1	.	.	88	26	.
Cc1cccc(N=C2CSC(=O)N2)c1	16	-3%	-7	-1.1	.
Cc1cc(-c2ccc(C)c(S(=O)(=O)N3CCN(c4ccc(F)cc4)CC3)c2)on1	.	.	38	-7.8	.
Cc1ccc(S(=O)(=O)NC(CC(=O)NCC2CCCO2)c2ccco2)cc1 (configuration not stated)	5	10%	4	-6.0	-42
O=C(CN1CCN(Cc2ccccc2)CC1)NCCc1ccccc1	.	.	-4	-0.3	.
O=C(NCCN1CCOCC1)c1ccc2c(c1)N(Cc1ccccc1F)C(=O)c1ccccc1S2	-8	-6%	-1	4.3	.
